PKD1 kinase inh: inhibitors of human PKD1 kinase, biochemical, fluorescence polarization; Serine/threonine-protein kinase D1 (Homo sapiens), Q15139; PKD1 kinase fluorescence polarization assay; inhibition, %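 (about 10 µM by stock and volumes)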; 0.056% of 200,000 active; AID 797, 2007;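 active means inhibition of 50% or more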;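 further: controls were vehicle for no effect and a reference inhibitor for full effect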
Target sequence (Q15139 whole entry, looked up): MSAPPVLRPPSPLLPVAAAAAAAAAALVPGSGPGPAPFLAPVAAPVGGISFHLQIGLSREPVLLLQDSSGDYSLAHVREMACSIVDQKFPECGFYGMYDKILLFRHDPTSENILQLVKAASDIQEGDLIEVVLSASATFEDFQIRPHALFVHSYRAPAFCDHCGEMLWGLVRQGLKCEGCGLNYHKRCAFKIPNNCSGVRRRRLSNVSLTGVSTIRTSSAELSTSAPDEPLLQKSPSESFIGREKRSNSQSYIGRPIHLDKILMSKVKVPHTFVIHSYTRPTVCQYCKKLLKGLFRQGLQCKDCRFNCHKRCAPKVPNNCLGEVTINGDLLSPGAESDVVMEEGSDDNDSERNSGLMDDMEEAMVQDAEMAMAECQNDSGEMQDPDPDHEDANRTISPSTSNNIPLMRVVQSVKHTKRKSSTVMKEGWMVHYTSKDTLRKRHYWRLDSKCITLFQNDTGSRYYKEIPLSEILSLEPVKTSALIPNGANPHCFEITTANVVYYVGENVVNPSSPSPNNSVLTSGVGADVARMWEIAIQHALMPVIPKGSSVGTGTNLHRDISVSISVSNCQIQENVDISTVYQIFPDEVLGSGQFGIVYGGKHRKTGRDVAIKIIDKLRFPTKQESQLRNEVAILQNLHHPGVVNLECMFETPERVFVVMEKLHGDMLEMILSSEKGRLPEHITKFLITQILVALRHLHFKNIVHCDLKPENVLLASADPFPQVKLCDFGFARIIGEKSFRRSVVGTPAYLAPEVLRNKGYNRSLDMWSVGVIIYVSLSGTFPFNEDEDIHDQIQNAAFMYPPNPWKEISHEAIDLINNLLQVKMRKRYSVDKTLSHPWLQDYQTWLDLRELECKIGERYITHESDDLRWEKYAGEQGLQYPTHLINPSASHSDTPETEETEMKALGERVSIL
RGS16-Gao HTS: modulators of RGS16 binding to Galphao, primary screen, biochemical, human proteins, multiplexed bead flow cytometry | bead-based flow cytometry RGS16-Galphao binding, fluorescence; actives lie on both sides | AID 1441, 2008 | 0.38% of 220,000 active | binding response (% of control), % at 10 µM;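 active means below 25% or above 175%, edge rows of some plates excepted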;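 further: Galphao activated by GDP with aluminum fluoride before binding; 100% = wells without compound and 0% = beads without RGS; some results beyond the cut were filed as inactive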
HSV replic up: enhancers of HSV replication in host cells, fold increase, host cell viability; HSV replication augmentation in cells; 0.005% of 220,000 active; AID 1956, 2009; maximum fold increase;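 active means peak rise of 1.5-fold or more in the series; inconclusive means self-fluorescent or not available for retest; tested in PC3 cells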;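 further: first round at 10 µM; read as green reporter fluorescence; hits show the peak of a series up to 25 µM; 1 = signal of infected wells without compound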
GALR2 ag: GALR2 receptor agonists, primary screen, cell-based; Galanin receptor type 2 (Homo sapiens), O43603; GALR2-expressing cells, agonist activation read-out; activation, %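 (tested at 5 µM)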; 0.48% of 140,000 active; AID 803, 2007;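 active means above mean plus 3 SD of all compounds, about 5% in these data, not always enough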;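 further: 0% = vehicle buffer wells and 100% = reference agonist at full effect; tested in CHO reporter cells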
INS promoter inh: inhibitors of insulin promoter-driven GFP, primary screen, imaging, TRM-6 cells (human fetal islet line), eGFP reporter, cell count | reporter expression induced with tamoxifen | AID 1273, 2008 | inhibition, % at 2 µM | 0.9% of 130,000 active;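 active means inhibition above the mean plus 3 SD, with well images judged a real hit on visual review, cut at about 60% in these data, passing the limit was not always enough; inconclusive means inhibition over the cutoff but images rejected on review; inactive means inhibition not above the cutoff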
INS promoter inh cell count: further read-out of INS promoter inh, marked with its call; normalized cell count, %; measured here: cell count, toxicity; reference of the scale not given here;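 cells exposed to compound for 48 h; stained nuclei by imaging scaled within each plate; lower means fewer cells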
HSV replic up primary fold: recorded beside HSV replic up, whose call it bears; fold increase; compound at 10 µM; measured here: primary screen fold increase 10 uM; tested in PC3 cells;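 GFP signal in the first replicate; 1 = infected wells without compound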
The depositor's hits bear a star; i = inactive; ? = inconclusive; / = not tested or not shown.

SMILES	PKD1 kinase inh	RGS16-Gao HTS	HSV replic up	HSV replic up primary fold	GALR2 ag	INS promoter inh	INS promoter inh cell count
CC(=O)Nc1ccc(S(=O)(=O)N2CCN(C(=O)CCC3CCCC3)CC2)cc1	-6	103	i	0.96	-0.8	/	/
O=C1C2C3C=CC(CC3)C2C(=O)N1/N=C/c1ccc(O)cc1 (stereo unspecified)	10	103	i	0.9	-2.8	/	/
CCNC(=S)NN=C1c2ccccc2-c2ccccc21	0	100	i	0.97	/	/	/
O=C(O)CCn1cc(/C=C2/NC(=S)N(c3ccccc3)C2=O)c(-c2ccccc2)n1	5	97	i	0.99	-0.9	27	129
O=C(Nc1ccccc1)Nc1nnc(Cc2ccc([N+](=O)[O-])cc2)s1	-11	103	i	0.87	-0.1	8	73
COc1cc(/C=N\n2nnnc2N)ccc1OCc1ccc(F)cc1	5	96	i	0.93	-0.7	/	/
CCOC(=O)CC(N)c1cccc([N+](=O)[O-])c1 (stereo unspecified)	-4	101	i	0.94	/	/	/
Brc1c(OCCOCCn2cncn2)ccc2ccccc12	-1	97	i	0.83	-1.9	-26	113
CCOC(=O)C1CCCN(C(=S)Nc2ccc(F)cc2)C1 (stereo unspecified)	-6	100	i	0.92	/	18	76
COc1cc(NC(=O)Cn2c(-c3cncs3)nc3ccccc32)cc(OC)c1OC	6	102	i	0.89	0.0	30	97
Cc1cc(C(=O)Nc2ccon2)c(C)o1	-8	103	i	0.89	/	/	/
COc1ccccc1N(CN1CCCC1=O)C(=O)c1ccccc1F	-20	97	i	1.3	-2.8	/	/
Cc1ccc(C)c(-n2c(SCC(=O)Nc3nonc3C)nnc2-c2ccoc2C)c1	-6	70	i	1	-1.7	/	/
COc1cccc(/C=N/NC(=O)COc2cccc3cccnc23)c1O	-4	91	i	0.77	/	/	/
Cc1cc(C)cc(OCC(=O)Nc2cccc(C(=O)O)c2)c1	-5	97	i	0.99	0.4	14	138
CC(C)C(C(=O)N1CCN(C(=O)OC(C)(C)C)CC1)n1cc(-c2cn([C@@H](C)C(=O)N3CCN(C(=O)OC(C)(C)C)CC3)nn2)nn1 (stereo partly specified)	/	103	i	0.85	/	/	/
Cc1ccc(OCC(=O)N(Cc2ccc(N(C)C)cc2)C2CCS(=O)(=O)C2)cc1 (stereo unspecified)	1	93	i	0.96	-1.2	/	/
CCn1c(Sc2ccc([N+](=O)[O-])cn2)nnc1-c1ccco1	1	36	i	0.7	/	/	/
COCCn1c(N)c(N(Cc2ccccc2)C(=O)Cc2ccccc2F)c(=O)[nH]c1=O	-1	105	i	0.9	/	21	111
Cc1ccc(NC(=S)NN2CCN(C)CC2)c(C)c1	-10	110	i	0.92	-0.5	-72	83
CCNCc1cc([N+](=O)[O-])ccc1OCC	2	68	i	1.1	/	/	/
O=C(c1ccccc1)N1CCN(CC2CC=CCC2)CC1 (stereo unspecified)	-1	239	i	0.77	-1.5	14	179
CCOC(=O)c1c(/N=C/c2ccc(C)cc2O)sc2c1CCC2	-8	100	?	/	-0.7	/	/
Oc1ccccc1/C=N/Nc1cc(N2CCCC2)nc(N2CCCC2)n1	-6	103	i	1.2	1.1	/	/
CCC(=O)c1ccc(OCC(=O)c2ccc3c(c2)NC(=O)CO3)cc1	/	103	i	0.98	/	/	/
COn1c(=O)c(-c2ccc(Cl)cc2)[n+]([O-])c2ccccc21	4	104	i	0.95	-2.3	51	155
COc1cccc(-c2nc(N3CCC(C)CC3)c3ccccc3n2)c1O	6	98	i	0.97	-0.6	/	/
Cc1ccc(CN2CN(S(=O)(=O)c3cccs3)c3nc4ccccc4nc32)cc1	-6	105	/	/	-1.9	27	89
COCc1cc(/C=N\NC(=O)COc2ccccc2)ccc1OC	-11	40	i	0.95	-1.6	/	/
Cc1cc(=O)oc2cc3c(cc12)OCCN3	0	102	i	0.98	10*	/	/
COC(=O)/C(=C\Nc1ccc(Cl)cc1Cl)NC(=O)c1ccc(Cl)cc1Cl	-1	98	/	/	-3.2	/	/
O=C(Nc1nccs1)C1CCN(S(=O)(=O)c2cccnc2)CC1	-9	113	i	0.9	/	/	/
CCCc1cc(=O)[nH]c(SCC(=O)NC2CCCCC2)n1	-1	105	i	1.2	-2.3	-16	102
CC(=O)NCCNS(=O)(=O)c1ccc(C)c([N+](=O)[O-])c1	8	113	i	1.1	/	/	/
Clc1ccc(OCc2nc3ccccc3[nH]2)cc1	4	87	i	1.2	/	/	/
O=C(c1cc2ccccc2cc1OCC(O)CN1CCCCC1)N1CCCCC1 (stereo unspecified)	6	110	i	0.82	-1.6	/	/
COc1ccc(NC(C)=O)cc1S(=O)(=O)Nc1ccccc1C(=O)N1CCCC1	-6	105	i	1.1	/	/	/
CCn1c(C)nc2cc(C(=O)NNC(=S)Nc3ccccc3Cl)ccc21	-3	99	i	0.83	-0.6	/	/
CCOC(=O)c1sc(NC(=O)c2cccc(S(=O)(=O)N3CCc4ccccc43)c2)c(C#N)c1C	/	93	i	0.8	/	/	/
CSC1=NSC2=NC(=O)/C(=C/c3coc4ccccc4c3=O)C(=N)N12	-15	200	?	/	0.0	10	109

A few values from the list:
`O=C(c1ccccc1)N1CCN(CC2CC=CCC2)CC1` (stereo unspecified) | PKD1 kinase inh = -1
`CCOC(=O)CC(N)c1cccc([N+](=O)[O-])c1` (stereo unspecified) | RGS16-Gao HTS = 101
`CCn1c(C)nc2cc(C(=O)NNC(=S)Nc3ccccc3Cl)ccc21` | PKD1 kinase inh = -3
`O=C1C2C3C=CC(CC3)C2C(=O)N1/N=C/c1ccc(O)cc1` (stereo unspecified) | PKD1 kinase inh = 10

The main list resumes, repeating the two entries before the break.
SMILES	PKD1 kinase inh	RGS16-Gao HTS	HSV replic up	HSV replic up primary fold	GALR2 ag	INS promoter inh	INS promoter inh cell count
CCOC(=O)c1sc(NC(=O)c2cccc(S(=O)(=O)N3CCc4ccccc43)c2)c(C#N)c1C	/	93	i	0.8	/	/	/
CSC1=NSC2=NC(=O)/C(=C/c3coc4ccccc4c3=O)C(=N)N12	-15	200	?	/	0.0	10	109
Cc1cc(OC(=O)c2ccccc2)c([N+](=O)[O-])c(=O)[nH]1	-7	96	/	/	/	-38	99
O=C(NC(=S)Nc1cc(Cl)ccc1O)c1cccc(Br)c1	/	109	i	0.89	/	/	/
CC(C)OP(=O)(OC(C)C)C(C)NC(=O)Cc1ccccc1 (stereo unspecified)	-5	108	i	0.91	/	82*	65*
CCOC(=O)CSc1ncc(-c2ccc([N+](=O)[O-])cc2)[nH]1	8	101	i	0.92	-0.2	3	157
Cc1ncc(CO)c2c1OC(C)(C)OC2	/	99	i	0.93	/	/	/
c1ccc(Nc2ncnc3sc4c(c23)CCC4)cc1	5	101	i	1.1	0.1	-13	104
COCCN(Cc1cc2cc(C)ccc2n2nnnc12)C(=S)Nc1ccccc1C	1	100	i	0.87	/	-23	68
COc1ccc(N2CCN(Cc3cc4c(cc3O)CCC4)CC2)cc1	-2	203	i	0.79	-1.9	-16	87
COc1cccc(CC2(CO)CCCN(Cc3[nH]c4ccc(C)cc4c3C)C2)c1 (stereo unspecified)	-6	89	i	0.82	/	/	/
Cc1ccccc1NC(=O)Nc1ccccc1Br	4	131	i	0.93	-2.6	54	62
COc1ccc(CCNC(=O)COC(=O)c2cc(OC)c(OC)cc2OC)cc1	-5	76	i	1	/	20	66
O=C(CCl)N(C/C=C/c1ccccc1)c1ccc2c(c1)OCCO2	-10	100	i	0.81	/	/	/
Cc1ccc(-c2[nH]c3cc(C(N)=O)ccc3c(=O)c2O)cc1	/	80	i	1.1	/	/	/
CC(C)CCn1c(=S)[nH]c2ncccc2c1=O	-12	98	/	/	-0.5	50	43
C=CCn1c(SCC(=O)Nc2ccc3c(c2)OCO3)nnc1-c1cc(Br)ccc1O	-7	/	i	1.1	0.3	-5	62
Cc1cc(C(=O)N2CCCC(C(=O)c3ccc4ccccc4c3)C2)nn1C (stereo unspecified)	-2	100	i	1	/	/	/
CC(C)NC(=O)C1CCCN(S(C)(=O)=O)C1 (stereo unspecified)	-6	105	i	0.98	-1.5	13	71
Cc1cc(NC(=O)CSc2nc(C3CC3)nc3sc4c(c23)CCC(C)C4)no1 (stereo unspecified)	8	/	i	0.84	-0.2	-3	59
CSc1nnc(Cn2c(=O)sc3ccccc32)n1-c1cccc(Cl)c1	7	93	i	0.95	-0.7	/	/
CC(C)CC(=O)OCC(=O)Nc1ccccc1Sc1ccccc1	-8	109	i	1.1	0.5	23	131

GALR2 ag: entries above that show a hit.
SMILES | PKD1 kinase inh | RGS16-Gao HTS | HSV replic up primary fold | GALR2 ag
Cc1cc(=O)oc2cc3c(cc12)OCCN3 | 0 | 102 | 0.98 | 10*

Next section
SMILES	PKD1 kinase inh	RGS16-Gao HTS	HSV replic up	HSV replic up primary fold	GALR2 ag	INS promoter inh	INS promoter inh cell count
CCN(CC)C(=O)CSc1nnnn1-c1ccc(F)c(Cl)c1	-8	102	i	0.92	/	-77	83
CN1CCN(CC(=O)N(C)c2nc(-c3ccccc3)cs2)CC1	-2	75	i	0.92	-2.2	7	90
N#Cc1ccc(NC(=O)COC(=O)C2=COCCO2)cc1	-6	113	i	0.94	-1.6	-15	89
OC1CC(c2ccco2)NC2(CCCCC2)C1 (stereo unspecified)	-8	96	i	0.88	-0.7	/	/
Cc1c(C(=O)NCc2cccnc2)oc2ccc(S(=O)(=O)N3CCCCCC3)cc12	-13	98	i	0.96	-0.2	-19	111
COC(=O)c1c(NC(=O)CC2Sc3ccc(C(F)(F)F)cc3NC2=O)sc(C)c1C (stereo unspecified)	-2	104	i	0.99	-0.2	-44	170
N#Cc1ccsc1NC(=O)CN1CCN(S(=O)(=O)c2ccc3ccccc3c2)CC1	5	99	i	0.96	-1.6	-30	107
Cc1ccc(OCCn2cc(/C=C3\C(=O)NN(c4ccccc4)C3=O)c3ccccc32)cc1	-11	107	i	0.95	-2.5	-69	89
COc1ccc2nc(SCC(=O)Nc3ccc(S(=O)(=O)Nc4nccc(C)n4)cc3)[nH]c2c1	-4	99	i	1	-0.5	11	59
CC(C)(C)NC(=O)CSc1nnc(CN2CCCCCC2=O)n1-c1ccccn1	-8	102	i	0.87	-1.7	/	/
O=C(CN1C(=O)NC2(CCCCCCC2)C1=O)NC1CCCc2ccccc21 (stereo unspecified)	16	101	i	1	-0.4	/	/
CC(=O)N/C(=C/c1ccc([N+](=O)[O-])cc1)C(=O)O	0	96	i	1	/	/	/
COc1cccc(CNCCc2c[nH]c3ccccc23)c1OCc1ccccc1F	12	103	i	0.68	-2.4	/	/
O=C(CN1CCN(c2ccc(F)cc2)CC1)Nc1cccc(C(F)(F)F)c1	-13	105	i	0.89	-0.3	-40	175
CCN1CCc2c(C#N)c(NCc3ccccc3)nc(NCCO)c2C1	-3	98	i	0.77	-0.3	-39	139
COC(=O)N1CC(c2ccccc2)CC1=O (stereo unspecified)	-2	109	i	0.8	-2.5	38	151
Cc1cccn2c(=O)c(C=NCc3ccco3)c(Nc3ccc(SC(F)F)cc3)nc12	-3	98	i	1.2	-1.7	14	102
O=C(CSC1=NCCN1)Nc1cccc([N+](=O)[O-])c1	-5	98	i	0.86	/	-20	130
O=S(=O)(c1ccc(Cl)cc1)N1CCN=C1SCc1cccnc1	-4	106	/	/	/	-8	102
Nc1nc(SCC(=O)c2ccc(Oc3ccccc3)cc2)n[nH]1	4	107	i	0.9	-1.2	-8	39
Cc1ccc(C2=CC(c3ccc(N(C)C)cc3)n3nnnc3N2)cc1 (stereo unspecified)	-8	105	?	/	-0.1	/	/
COc1ccc2oc3cc(C)[n+]([O-])c(-c4ccc(Cl)cc4)c3c2c1	0	90	i	0.73	-0.4	-36	93
Cc1cccc(-n2[nH]c3c4c(ccc3c2=O)C(=O)c2ccccc2C4=O)c1	-11	101	i	0.99	-1.3	/	/
Cc1nn(C)c(C)c1S(=O)(=O)N(CC(=O)Nc1nccs1)c1ccc(C(C)C)cc1	-12	105	i	0.93	-1.9	/	/
CCOc1cc2[nH]c(=O)n(CC3CCC(C(=O)NCCCOC)CC3)c(=O)c2cc1OCC (stereo unspecified)	4	104	i	1	-1.0	-171	74
O=C(c1cnccn1)N(c1ccccc1)C1(C(=O)NC2CCCC2)CCCCC1	4	98	/	/	0.4	-100	141
COc1cccc(CNC(=O)Cc2ccc(Br)cc2)c1	11	102	i	1.1	-0.2	4	128
Cc1cccc(Cn2c(=O)c3c(nc4n3CCN4Cc3ccco3)n(C)c2=O)c1	-13	102	i	0.8	0.0	6	74
CCN(CC(=O)Nc1ccc2c(c1)OCCO2)C(=O)/C=C/c1ccc(F)cc1	-7	102	i	1	/	/	/

Screening data deposited in PubChem by several laboratories.
